Screens: PubChem, National Center for Advancing Translational Sciences (NCATS)
Menin MLL FP FL = menin-MLL binding inhibition, fluorescein peptide. Fluorescence polarization, fluorescein-MLL peptide displacement from menin. FP activity change, % at 61.4 µM. 290,000 tested, under 10 active. AID 1766; inconclusive = falling polarisation curve, or a change in total fluorescence; inactive = total fluorescence flat and polarisation flat or rising; no compound was filed as active; the % refers to the polarisation; negative = inhibition;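 further: % of control where 0% means no effect; inhibitors lower the polarisation; unlabelled MLL peptide was the positive control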
PINK1 modulator = changes PINK1 expression | PINK1 immunofluorescence, high-content cytometry, 24 h | AID 624263 | hit rate 0.2% among 410,000 | Potency, µM (highest dose often 76.6 µM), for inactives: at the highest dose activation (PINK1 increase), most hits filed as activators; active = well fitted activation curve with a large enough effect; inconclusive = small, poorly fitted or top-dose-only effect; inactive = flat fitted curve, though single readings scatter; cell line not stated here;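 further: potency means the concentration at half of the fitted maximal effect; % of control where 0% means no effect; nearly all actives have a fitted effect of over 65% in size; a mitochondrial uncoupler was the plate control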
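Compound titrations (5 concentrations, 24 h) on a stable cell line; DMSO and CCCP controls. Endpoint: fixed-cell PINK1 immunofluorescence with mitochondrial, cell and nuclear markers, scanned by microplate cytometer.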
gsp antagonist = antagonists of gsp mutant (McCune-Albright syndrome); Potency, µM (series often up to 76.9 µM), for inactives: top-dose activity change, negative = inhibition, hits mostly inhibitors; gsp-mutant cells, cAMP HTRF, 30 min; control for the full effect not named in the record; AID 624288; hit rate 0.4% among 340,000; active = falling curve of any shape with a large fitted effect; inconclusive = falling curve, mostly with a smaller effect; inactive = flat or rising curve; cell line not stated here;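 further: intracellular cAMP measured with PDE inhibitor Ro 20-1724 present during compound exposure; potency means the concentration at half of the fitted maximal effect; on the % scale 0 is the no-effect control and ±100 the full control effect; nearly all actives have a fitted effect of over 65% in size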
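HTRF cAMP measurement after 30 min RT detection following 30 min, 37C compound treatment alongside […] (added as 300 uM solution) in G418-selected cells seeded at 2000/well and grown 16–24 h.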
ClpP mod = qHTS Assay for Activators of ClpP. ATP-dependent Clp protease proteolytic subunit (Bacillus subtilis (strain 168)), P80244. purified B. subtilis ClpP, FRET peptide cleavage, 20 min. Potency, µM (top dose mostly 57.5 µM), inactives show at the top dose activity change, negative = active. hit rate 1.9% among 340,000; active = well fitted falling curve with a large enough effect; inconclusive = small, poorly fitted or top-dose-only effect; inactive = no such curve, though single readings can be large or run the other way; further: potency means the concentration at half of the fitted maximal effect; the source files actives as falling curves though it sought activators and does not explain the sign; nearly all actives have a fitted effect of over 65% in size; many hits overshoot -100%
Target sequence (P80244 whole entry, looked up): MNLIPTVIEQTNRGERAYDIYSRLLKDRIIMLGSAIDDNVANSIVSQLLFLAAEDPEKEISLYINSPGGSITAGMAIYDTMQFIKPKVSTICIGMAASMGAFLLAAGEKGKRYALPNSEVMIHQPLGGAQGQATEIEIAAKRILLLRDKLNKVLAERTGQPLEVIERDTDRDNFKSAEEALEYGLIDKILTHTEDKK
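ClpP 10 microg/mL final, pH 8 Tris/KCl buffer with BSA, glycerol, Tween-20; compound pinned in; FRET-FV substrate; RT 20 min; Ex320/Em430; ΔFRET vs ADEP 5.8 microM, DMSO, no enzyme.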
Sfp inh = Sfp phosphopantetheinyl transferase inhibition | Biochemical Sfp PPTase activity, qHTS | Potency, µM, inactives show max response, negative = inhibition, most hits filed as inhibitors | hit rate 3.5% among 310,000 | AID 1490; active means well fitted inhibition curve with a large enough effect; inconclusive means small, poorly fitted or top-dose-only effect, or another doubt; inactive means no such curve, though single readings can be large or run the other way;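 further: the enzyme is Sfp with the accession as filed and its product quenches rhodamine fluorescence; potency means the concentration at half of the fitted maximal effect; 0% = enzyme reaction without inhibitor and -100% = no enzyme wells; top concentration of the series not given in the record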
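Step 1, compound plus 15 nM Sfp-PPTase, 15 min, room temperature. Step 2, add rhodamine-CoA (5 uM) and BHQ-2-YbbR (12.5 uM). Step 3, read 525/598 nm fluorescence at 0 and 30 min.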
D2 agonist = human D2 receptor agonism in beta-arrestin assay | P14416 | DiscoveRx PathHunter D2 beta-arrestin, luminescence, 90 min; 100% = 57 uM dopamine signal | activation, % (concentration not given with the values) | hit rate 0.084% among 360,000 | AID 624465; in the data active = activation above about 40%; inconclusive = about 15% to 40%; inactive = below about 15%; further: compound concentration not given in the record; the text of the record calls up to 30% inactive
Target sequence (P14416 whole entry, looked up): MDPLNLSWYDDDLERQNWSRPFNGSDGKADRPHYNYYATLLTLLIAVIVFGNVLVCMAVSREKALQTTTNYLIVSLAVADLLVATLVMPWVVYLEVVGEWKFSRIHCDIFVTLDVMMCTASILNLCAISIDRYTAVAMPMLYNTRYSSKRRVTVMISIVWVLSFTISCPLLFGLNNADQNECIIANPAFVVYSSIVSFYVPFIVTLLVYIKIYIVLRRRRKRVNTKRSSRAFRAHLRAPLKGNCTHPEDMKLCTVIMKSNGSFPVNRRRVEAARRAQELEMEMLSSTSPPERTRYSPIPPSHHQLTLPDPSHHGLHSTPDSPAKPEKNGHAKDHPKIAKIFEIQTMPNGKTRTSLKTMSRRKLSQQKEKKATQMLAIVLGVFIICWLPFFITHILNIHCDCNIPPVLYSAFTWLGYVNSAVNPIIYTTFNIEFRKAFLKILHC
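DiscoveRx PathHunter D2 beta-arrestin cells (2,100/well) attached overnight, then compound-stimulated 90 min at 37 C in HBSS/10 mM HEPES/0.1% Tween-20 buffer; beta-galactosidase complementation read by luminescence after 1 h at ambient temperature. Dopamine 57 uM final (EC100) as control.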
gsp agonist = activates gsp, the McCune-Albright syndrome mutation | gsp mutant cells, cAMP HTRF, 30 min; control for the full effect not named in the record | Potency, µM (top dose mostly 76.9 µM), for the others: at the top dose activation (cAMP increase), actives largely listed as activators | hit rate 0.13% among 340,000 | AID 624287; active = well fitted activation curve with a large enough effect; inconclusive = small, poorly fitted or top-dose-only effect, or another doubt; inactive = no such curve, though single readings can be large or run the other way; cell line not stated here;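 further: phosphodiesterase inhibitor Ro 20-1724 added with compounds to block cAMP breakdown; potency means the concentration at half of the fitted maximal effect; nearly all actives have a fitted effect of over 60% in size; about a fifth of the inactives were tested at one dose only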
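Cells stably selected in G418 were plated at 2000/well, grown 16-24 hr, then given compounds in DMSO with the PDE inhibitor […] (300 uM solution added) for 30 min at 37C; cAMP was read by HTRF.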
Active calls of the source: *; ? = inconclusive; nt = no result given; & = joins results of further samples; [ ] = remark or other dose. Not a hit list; overall some 5.1% were active at least once.

SMILES	Menin MLL FP FL	PINK1 modulator	gsp antagonist	ClpP mod	Sfp inh	D2 agonist	gsp agonist
CN(C)C(=O)c1cccc(-c2cnc3c(NC=O)cc(-c4ccc(C(=O)N5CCOCC5)cc4)cn23)c1	nt	2.7%	nt	-29.9%	nt	-6.5	nt
CCn1cc(CNC(=O)c2ccc(Cl)c([N+](=O)[O-])c2)c(C)n1	2.0	-1.4%	?	102.9%	20.4%	-3.1	?
CS(=O)(=O)c1ncc(Cl)c(C(=O)Nc2ccc(OC(F)F)cc2)n1	1.4	-1.7%	-20.6%	nt	?	-10.5	-1.7%
COc1ccc(/C=N/Nc2ncc(Br)cn2)c(OC)c1	-2.4	7.7%	4.7%	-0.6%	?	3.7	-6.7%
COC(=O)c1cn(NC(=O)Cc2ccc(Cl)cc2)c(=O)c2ccccc12	-3.3	3.0%	6.4%	-16.7%	6.3%	3.4	-5.9%
CC(C)C(OC(=O)CCC(=O)Nc1nccs1)C(=O)NC1CCCCC1 (centres undefined)	-4.7	2.7%	11.6%	nt	14.8%	-3.7	1.7%[15.4 µM]
CCc1nnc(NC(=O)C2CCCN2S(=O)(=O)c2ccccc2)s1 (centres undefined)	0.9	-5.5%[38.3 µM]	-14.7%	-1.4%	9.2%	-0.4	-33.0%[inhibitor]
Cc1ccc(C)c2nc(Cl)c(C#N)cc12	5.8	2.6%	nt	nt	8.6%	2.6	-1.0%[15.4 µM]
Cc1ccc(NC(=O)CSc2ncnc3ccccc23)cc1S(=O)(=O)N1CCOCC1	-0.5	2.7%	6.0%	nt	15.7%	-0.5	14.5%[15.4 µM]
Cc1cc(C)n(-c2cc(O)c(-n3nc(C)cc3C)cc2O)n1	2.7	-3.3%	9.9%	nt	-6.3%	8.5	?
CCCC(=O)N1CCC1(C)C(=O)Nc1ccc2c(c1)OCCO2 (centres undefined)	nt	1.8%	nt	-1.9%	nt	-1.3	nt
Cn1cc(S(=O)(=O)NCc2cccs2)c(=O)n(C)c1=O	-0.5	0.3%	7.0%	-1.0%	0.0%	-1.9	?
CN(c1ccccc1)S(=O)(=O)c1ccc(C(=O)NCc2cccs2)cc1	-0.5	3.4%	-39.8%	1.3%	23.4%	6.2	-1.5%
Cc1ccc(S(=O)(=O)N2CCOCC2)cc1NC(=O)c1cc2c(s1)CCC2	0.0	0.3%	-30.4%	-1.7%	8.4%	1.2	29.2%
Nc1ccc(S(=O)(=O)Nc2nccs2)cc1	4.4	6.3%	2.5%	1.5%	-8.6%&0.6%&10.3%	-3.7	5.2%
CCOc1ccc(CCNS(=O)(=O)c2ccc3c(c2)NC(=O)CO3)cc1OCC	nt	-1.0%	3.2%	-1.5%	6.9%	-0.7	-2.2%
CCn1c(N2CCN(S(=O)(=O)c3ccccc3C(F)(F)F)CC2)nc2ccccc21	5.1	0.6%	-12.0%	-1.2%	-5.3%	?	3.4%
C[C@@H](NC(=O)c1[nH]cnc1C(=O)Nc1ccccc1)c1ccccc1	nt	7.4%	-11.8%	-0.7%	nt	-1.9	nt
Cc1ccc(S(=O)(=O)N2CCN(C(=O)Cn3c(=O)cnc4ccccc43)CC2)cc1	nt	2.7%	-17.1%	?	nt	-1.4	9.1%
CCc1ccc(-n2c(=S)sc3c(=O)n(-c4ccccc4OC)c(=S)[nH]c32)cc1	-1.0	1.5%	-18.9%	-5.3%	-10.9%	-3.6	3.6%[15.4 µM]
O=C(c1c[nH]c(=O)n(-c2ccccc2)c1=O)N1CCc2ccccc21	1.2	-1.5%	2.5%	-2.6%	3.1%	-0.8	0.4%
O=C(c1ccc(CNS(=O)(=O)c2ccccc2)cc1)N1CCN(Cc2ccccc2)CC1	-3.0	-0.4%[38.3 µM]	-12.4%	0.4%	2.6%	4.3	-8.7%
C/C(=N/NC(=O)c1cc(-c2ccc(Br)s2)[nH]n1)c1ccco1	-2.1	0.3%	-1.2%	nt	-5.9%	3.2	6.0%[15.4 µM]
O=C(CCNS(=O)(=O)c1cccc(C(F)(F)F)c1)NCc1ccco1	nt	1.4%	9.3%	-0.4%	nt	-2.6	-2.5%
CC[C@H](C)[C@H](NC(=O)c1ccccc1)C(=O)Nc1ccc(S(=O)(=O)Nc2cc(C)nc(C)n2)cc1	-1.0	0.3%	0.2%	0.8%	18.8%	3.6	?
FC(F)Sc1ccc(Nc2ncnc3nc[nH]c23)cc1	-0.8	-1.6%[38.3 µM]	-8.7%	-8.2%	-8.6%	-0.6	13.8%
O=C(CCn1c(=O)c2ccccc2n(CC(=O)N2CCN(c3ccccc3)CC2)c1=O)NCc1ccco1	0.8	1.1%	-3.4%	nt	9.8%	1.6	-8.0%[15.4 µM]
COc1ccc(NC(=O)CN(C)C(=O)CCc2ccccc2)cc1	-5.7	0.6%	6.5%	nt	17.2%	-3.3	-4.5%[15.4 µM]
Cc1ccccc1C(=O)Nc1c(C)[nH]c(=O)[nH]c1=O	-4.2	-0.6%	-25.0%	-0.2%	13.6%	-1.8	6.1%
Cc1cc(C(=O)Nc2c(C)n(C)n(-c3ccccc3)c2=O)cs1	2.6	?	2.3%	-0.1%	2.7%	0.5	-22.3%
O=S(=O)(NCc1ccccn1)c1ccc(Cl)s1	2.1	-1.0%	8.8%	nt	-4.8%	-0.1	-6.8%[15.4 µM]
Cc1ccccc1NC(=O)c1csc2c1CCCC2	-0.4	13.6%[38.3 µM]	?	2.6%	1.4%	-0.9	26.2%
CCN(CC)CCNS(=O)(=O)c1ccc(OC)c(Br)c1	0.0	-0.8%	8.9%	-1.4%	6.8%	-0.2	1.4%
CN(CCc1ccccn1)C(=O)CCC1CCCN(C(=O)c2c(F)ccc(F)c2F)C1 (centres undefined)	nt	2.7%	-4.1%	-0.5%	-4.3%	-3.0	25.4%
COc1cc(N(C)C)c([N+](=O)[O-])cc1C(=O)N1CCOCC1	0.5	0.3%	nt	nt	8.7%	-13.1	9.0%[15.4 µM]
CCOC(=O)N1CCN(c2ccc(S(=O)(=O)N3CCOCC3)cc2[N+](=O)[O-])CC1	nt	4.1%	17.5%	1.2%	nt	-0.9	0.6%
COc1ccc(C(CNC(=O)c2cc3ccccc3o2)N2CCCC2)cc1 (centres undefined)	nt	0.2%	16.5%	-2.4%	nt	-0.7	-24.3%
COc1ccccc1CN1CC(C(=O)NCc2ncccc2C)CCC1=O (centres undefined)	0.4	-1.1%	11.7%	-1.1%	12.3%	-3.0	-26.4%
CN(C)S(=O)(=O)c1ccc(NC(=O)COC(=O)c2n[nH]c3ccccc23)cc1	2.4	-3.0%	-28.7%	-6.3%	1.3%	1.1	-36.2%[inhibitor]
CC1C(=O)N2CCCc3cc(NC(=O)C(=O)NCc4cccnc4)cc1c32 (centres undefined)	nt	-1.1%	9.8%	3.1%	nt	0.8	0.7%
O=C(CC12CC3CC(CC(C3)C1)C2)Nc1ccccc1N1CCOCC1	-1.1	2.4%	-6.1%	nt	-13.2%	-3.0	-5.2%
Cc1cc(-c2ccccc2)c2c3c(c(-c4ccccc4)n2n1)c(=O)n(C)c(=O)n3C	?	?	-0.4%	-0.2%	-5.9%	-2.8	-4.9%
COc1ccc(NC(=S)NCCN2CCC(C)CC2)cc1Cl	-2.4	1.9%	nt	nt	2.51µM*	-4.9	8.2%[15.4 µM]
Cc1ccc(F)c(S(=O)(=O)NC(=O)C2(C)CCN2C(=O)c2ccccc2)c1 (centres undefined)	nt	2.6%	nt	2.1%	nt	-4.9	nt
COc1ccc2c(c1)c1ncn(CCc3ccccc3)c(=O)c1n2C	2.4	-1.0%[38.3 µM]	1.1%	4.47µM*	3.9%	-2.6	3.7%
COc1cc2c(cc1OC)CN(C(=O)c1ccc(OC)c([N+](=O)[O-])c1)CC2	4.5	0.5%	-0.7%	-1.2%	19.1%	-6.5	-2.4%[15.4 µM]
OC(COCCOc1ccc(Br)cc1)CN1CCN(Cc2ccccc2)CC1 (centres undefined)	-2.8	7.8%	-3.9%	3.5%	-10.4%	0.4	3.6%
Cc1oc2cc3oc(=O)c(CC(=O)NCCCC(=O)O)c(C)c3cc2c1C	1.7	1.3%	3.5%	nt	9.3%	-1.5	5.1%
O=C(O)C1CCCN1S(=O)(=O)c1ccccc1 (centres undefined)	1.0	-3.8%[38.3 µM]	16.4%	1.1%	16.8%	-2.0	-42.5%[inhibitor]
C[C@H]1CN([C@@H](C)CO)C(=O)c2cc(NS(=O)(=O)c3ccc(F)cc3)ccc2O[C@H]1CN(C)S(=O)(=O)c1cn(C)cn1	nt	-0.6%	7.7%	1.7%	nt	2.3	nt
CSc1nc(-c2ccccc2)cn1-c1ccc(NC(C)=O)cc1	6.3	4.8%	-11.4%	nt	0.0%	5.1	-43.7%[inhibitor]
COCCC1CCCCN1C(=O)c1cc(COc2ccc(C)nc2)on1 (centres undefined)	3.6	1.4%	-9.7%	0.5%	12.1%	-5.4	-38.0%[inhibitor]
Cc1cc(NC(=O)CSc2nc3c(c(-c4cccnc4)c2C#N)CCC3)no1	-1.6	17.8%[38.3 µM]	2.6%	-13.8%	2.1%	0.6	?
O=[N+]([O-])c1ccc(N2CCCCC2)cc1	3.9	-0.3%	7.5%	nt	7.5%	-2.5	-4.2%[15.4 µM]
O=S(CC(O)(c1ccccc1)c1ccccc1)CC(O)(c1ccccc1)c1ccccc1	nt	26.5%	nt	-2.9%	nt	-7.5	-19.2%
CCc1cc2c(C)cc(C)cc2nc1SCC(=O)Nc1cc(C)on1	1.5	11.5%	-7.0%	nt	-9.8%	3.9	3.4%
COC(=O)C[C@H]1C[C@H]2c3cc(NC(=O)Nc4ccc(F)cc4)ccc3O[C@H]2[C@@H](CO)O1	nt	0.4%	nt	-2.2%	nt	-2.4	?
S=c1[nH]nc(CSCCOc2ccc(Cl)cc2Cl)o1	-4.5	-1.6%	?	nt	2.3%	-9.1	19.5%
